Screening results from PubChem.
PMP22 txn prim – modulators of PMP22 gene transcription in S16 Schwann cells | Potency, µM (doses to about 57.5 µM), for inactives: top-dose activity change, negative = inhibition, usual class: inhibitors | S16 Pmp22-F2sN Schwann cells (luciferase reporters placed in the Pmp22 gene), FLuc/NLuc coincidence luminescence, 24 h | 43,000 compounds, 2% hits; active = clear falling dose curves in both reporters; inconclusive = both reporters move, but less clearly or upward; inactive = either reporter flat; the % is the NLuc reporter signal; further: on the % scale 0 is the no-effect control and ±100 the full control effect; some results filed as inactive show a strong effect at the top dose
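qHTS, 1536-well. Cells seeded, compounds added by pin tool, 24 h 37C. Nano-Glo reagent 1 (lysis/FLuc), 10 min RT, read; Stop&Glo, 10 min RT, read NLuc.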
HTT promoter inh – HTT promoter inhibition | 48,000 compounds, 0.93% hits | AID 1508623 | Potency, µM (titrated, usually from 57.5 µM), for the others: top-dose activity change, negative = inhibition, most hits filed as inhibitors | HEK293 HTT promoter firefly luciferase reporter (activity 0% = vehicle and -100% = no light), 24 h; active means well fitted inhibition curve with a large enough effect; inconclusive means small, poorly fitted or top-dose-only effect; inactive means no such curve, though single readings can be large or run the other way; further: nearly all actives have a fitted effect of over 50% in size
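Quantitative HTS used concentration series of up to 57.5 uM final on HEK293 luciferase reporter cells, 24 h at 37 degrees C. Readout was Dual-Glo firefly luminescence.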
* = called active by the depositor; ? = inconclusive; . = not tested or not shown; [ ] = another dose, or the depositor's remark. Potency means the concentration at half of the fitted maximal effect. Only part of the results is shown (hit frequency here may not be typical).

SMILES | PMP22 txn prim | HTT promoter inh
COc1ccc(OC)c(S(=O)(=O)NCC(c2cccs2)S(=O)(=O)c2ccc(F)cc2)c1 (configuration not stated) | ? | -29%
CC(=O)N1CCN(c2ccc(OCc3nn(C)c(C)c3-c3cccc4c(CCCOc5cc(C)c(Cl)c(C)c5)c(C(=O)O)n(Cc5cccnc5)c34)cc2)CC1 | . | 0%
CCOC(=O)OC(C)OC(=O)[C@@H]1N2C(=O)[C@@H](NC(=O)[C@H](N)c3ccccc3)[C@H]2SC1(C)C (some centres not stated) | . | -1%
Cc1cccc(CCNc2ncnc3onc(-c4ccc(Cl)cc4)c23)c1 | 19µM* | ?
CSc1ccc(CCNC(=O)Cn2nc(C)n3c(cc4sccc43)c2=O)cc1 | -7% | 7%
CC(=O)Nc1ccc(NC(=O)CN(C)S(=O)(=O)c2ccc3c(c2)CCCC(=O)N3)cc1 | 9% | -8%
COc1ccccc1NC(=O)CC(C)n1nc(C)cc1C (configuration not stated) | -6% | 11%
O=C(Nc1cccc(F)c1)c1cccc2c1C(=O)N(C1CCCCC1)C2 | -29% | -19%
Cc1ccc(S(=O)(=O)c2nnn3c2nc(NCc2ccc(F)cc2)c2sccc23)cc1 | ? | 2%
Cc1ccc(S(=O)(=O)Nc2nc3n(n2)C(c2ccc(F)cc2)C=C(c2ccccc2)N3)cc1 (configuration not stated) | ? | -9%
CCOc1ccccc1NC(=O)Cn1c2ncccc2c(=O)n1-c1ccc(C)c(C)c1 | -11% | -15%
COc1ccc(-c2c(C)c3ccc(O)c(CN4CCCCC4)c3oc2=O)cc1OC | -8% | -14%
Cc1ccc(OCC(=O)NCC(c2ccc(Cl)cc2)N2CCCCC2)cc1 (configuration not stated) | -4% | -30%
O=C(NCc1cccs1)c1ccc2c(=O)n3nc(Nc4ccccc4)sc3nc2c1 | ? | ?
Cc1nnc(SCc2ccccc2Cl)c2cc3occc3n12 | -23% | 55%[activator]
CN(C)c1ccc(C(CNS(=O)(=O)c2ccc(F)cc2)N2CCOCC2)cc1 (configuration not stated) | -32% | -17%
COc1ccc(OCc2nc3c4c(-c5ccc(OC)cc5)c(-c5ccc(OC)cc5)oc4ncn3n2)cc1 | -4% | -7%
COc1ccccc1Nc1nn2c(=O)c3ccc(C(=O)NC4CCCCC4)cc3nc2s1 | ? | -12%
O=C(NCCc1ccc(F)cc1)C(=O)NCC(c1cccs1)S(=O)(=O)c1cccs1 (configuration not stated) | ? | ?
CSc1ncc(Cl)c(C(=O)NCc2ccc(C)cc2)n1 | 2% | -16%
Cc1cccc(N2CCN(C(=O)c3cc(S(=O)(=O)N4CCC(C)CC4)cn3C)CC2)c1C | ? | ?
CCCN(CCC)C(=O)Cn1c(=O)n(Cc2ccc(C(=O)NCCc3ccc(Cl)cc3)cc2)c(=O)c2ccccc21 | ? | -19%
CSCCC(NS(=O)(=O)c1ccc2c(c1)oc(=O)n2C)C(=O)N1CCN(c2cc(Cl)ccc2C)CC1 (configuration not stated) | ? | -26%
CCCCSCCCNC(=O)c1cn(C)c2ccc(S(=O)(=O)N3CCCCC3)cc2c1=O | -1% | -13%
Cc1cc2ccccc2n1-c1ccc(C(=O)N2CCC(C(=O)NCc3ccc(F)cc3)CC2)s1 | ? | ?
SMILES | PMP22 txn prim | HTT promoter inh
Cc1ccc(S(=O)(=O)C(CNC(=O)COc2ccccc2)c2ccco2)cc1 (configuration not stated) | -6% | -27%
COc1ccc(CCn2c3c(c(=O)[nH]c2=O)C(NC(=O)c2ccccc2OC)(C(F)(F)F)C(=O)N3)cc1OC (configuration not stated) | -26% | -11%
COc1ccccc1-c1nc2c3c(-c4ccccc4)c(-c4ccccc4)oc3ncn2n1 | 3% | 42%[activator][11.5 µM]
Cc1ccc(CCNC(=O)c2cc3cc4cc(C)ccc4nc3s2)cc1 | -23% | 33%[activator]
CCOc1ccc2oc(=O)cc(CN3CCN(c4ccc(Cl)cc4)CC3)c2c1 | ? | -12%
CCc1ccc2oc(-c3ccc(C)c(NC(=O)Cc4ccccc4)c3)nc2c1 | -19% | -9%
COc1ccc(Nc2nc3ccccc3n3c(N)nnc23)cc1 | 12% | 29%
CCCCc1ccc(NS(=O)(=O)c2cc3c4c(c2)CC(=O)N4CCC3)cc1 | ? | ?
Cc1ccc(C(=O)N(Cc2ccc(N(C)C)cc2)Cc2ccco2)cc1 | 1% | -19%
CCNC(=O)c1ccc(C)c(-n2c(C)nc3cccnc32)c1 | -8% | -16%
NC(=O)CN1C(=O)C2(SCC(=O)N2c2cccc(F)c2)c2ccccc21 (configuration not stated) | 12% | 0%
CCOC(=O)c1[nH]c(C)c(CCC(=O)NCc2ccccc2)c1C | -32% | -8%
COC(=O)c1cc(S(=O)(=O)NCC2CCN(Cc3cc(C)ccc3C)CC2)c[nH]1 | ? | -18%
O=C(c1ccc2c(c1)CCN2S(=O)(=O)c1ccc(Cl)cc1)N1CCN(c2ccccc2F)CC1 | ? | ?
CC(=O)Nc1cccc(O)c1 | . | 1%
COc1ccccc1Nc1c2c(nc3ccc(NC(=O)c4ccccc4F)cc13)CCCC2 | ? | ?
COc1ccc(CCNc2ncnc3onc(-c4ccc(Cl)cc4)c23)c(OC)c1 | ? | ?
CCOC(=O)c1cc(-c2ccccc2)n(CCCC(=O)Nc2ccc(CC)cc2)c1C | ? | ?
Cc1ccc(C)n1-c1nnc(N2CCCC(C(=O)NCc3cccc(Br)c3)C2)s1 (configuration not stated) | ? | ?
Cc1cccc(NC(=O)c2c(C)oc3ncn(CC(C)C)c(=O)c23)n1 | ? | 0%
CN(C)S(=O)(=O)c1ccc(C(=O)NCCSc2c(-c3ccccc3)[nH]c3ccccc23)cc1 | ? | ?
CCSc1nc(-c2cccc(Cl)c2)nc2c1Cc1c(CO)cnc(C)c1O2 | 5% | -6%
COc1cc(CNC(=O)c2cnc(SC)nc2-c2ccccc2)cc(OC)c1OC | -6% | -2%
CN(C(=O)CSc1nc2ccc(NC(=O)c3ccccc3F)cc2s1)c1ccccc1 | ? | ?
COc1ccc(CC(=O)NCC(c2cccs2)S(=O)(=O)c2ccc(C)cc2)cc1 (configuration not stated) | -21% | -6%
SMILES | PMP22 txn prim | HTT promoter inh
COc1ccc(Oc2c(C(F)(F)F)oc3c(CN4CCCC(C)C4)c(O)ccc3c2=O)cc1 (configuration not stated) | ? | ?
CC(C)(C)c1cc(C(C)(C)C)c2oc(=O)c(-c3nc4ccccc4[nH]3)cc2c1 | 37% | -20%
O=C(Cn1c(=O)c2ccccc2n(CC(=O)Nc2ccccc2F)c1=O)NCCc1ccccc1 | -7% | -1%
Cc1ccc(Cn2c(-c3ccccc3)nc3ccccc32)cc1 | -4% | 7%
CCCCn1c(=N)n(CCOc2ccccc2OC)c2ccccc21 | 20µM* | ?
COc1cc(C2SC[C@H]3C(=O)N(c4ccccc4)C(=O)N23)cc(OC)c1OC (some centres not stated) | 3% | -26%
CCC(Cc1ccccc1)NC(=O)c1cccc(Nc2nc3ccccc3nc2-n2nc(C)cc2C)c1 (configuration not stated) | -5% | -8%
CC(=O)Nc1ccc(C(=O)CSc2nnc3cc(C)c4ccccc4n23)cc1 | ? | -10%
COCCCNC(=O)c1cc2c(=O)n3cccc(C)c3nc2s1 | -1% | 22%
COc1ccc(NC(=O)CSc2nc3nc(C)c(Cc4ccccc4Cl)c(C)n3n2)cc1OC | -23% | ?
CCN(CC)S(=O)(=O)c1nnc(NC(=O)c2ccc(C(C)C)cc2)s1 | -18% | ?
COc1ccc(NC(=O)c2c(C)oc3ccc(O)c(CN4CCN(Cc5ccccc5)CC4)c23)cc1Cl | ? | -17%
CCOC(=O)c1ccc(NC(=O)c2cn(-c3ccccc3)nc2-c2ccc(Br)cc2)cc1 | -11% | -2%
CCOc1cccc2cc(-c3cn4c(n3)sc3cc(C)ccc34)c(=O)oc12 | ? | -5%
Cc1ccc(Nc2ccc(N3CCN(C(=O)c4ccc([N+](=O)[O-])cc4Cl)CC3)nn2)cc1 | ? | ?
Cc1c(C(=O)Nc2ccc(Br)cc2F)oc2ccc(S(=O)(=O)N3CCCCC3)cc12 | -4% | -22%
COc1cccc(CNC(=O)Cn2nc(C)n3c(cc4cc(C)ccc43)c2=O)c1OC | -12% | -2%
Cc1ccc(NC(=O)CN2C(=O)CCc3cc(S(=O)(=O)N4CCOCC4)ccc32)cc1F | -5% | -24%
CCOCCCNC(=O)c1cc(=O)[nH]c2ccc(S(=O)(=O)N3CCCC3)cc12 | 0% | -7%
CCN1c2ccccc2-n2cccc2C12CCN(C(=O)Nc1ccccc1C(F)(F)F)CC2 | -19% | -12%
O=C(CCn1c(=O)c2cccn2c2cccnc21)N1CCN(c2cccc(C(F)(F)F)c2)CC1 | ? | ?
COc1ccc(CNC(=O)c2c3c(nc4ccccc24)C(=O)N(C2CCCCC2)C3)c(OC)c1 | 4% | -11%
O=C(c1cc2ccccc2oc1=O)N(Cc1cccc(Cl)c1)C1CCS(=O)(=O)C1 (configuration not stated) | ? | -10%
CCCN(c1c(C)n(C)n(-c2ccccc2)c1=O)S(=O)(=O)c1ccc(C)cc1 | 15% | -10%
COc1ccc(NC(=O)c2cc(C)nc3c2c(C)nn3-c2ccc(C)cc2)cc1OC | 11% | -27%

Arranged by the number under HTT promoter inh (largest number first): some entries from above.
SMILES | HTT promoter inh
O=C(Cn1c(=O)c2ccccc2n(CC(=O)Nc2ccccc2F)c1=O)NCCc1ccccc1 | -1%
COc1cccc(CNC(=O)Cn2nc(C)n3c(cc4cc(C)ccc43)c2=O)c1OC | -2%
CCC(Cc1ccccc1)NC(=O)c1cccc(Nc2nc3ccccc3nc2-n2nc(C)cc2C)c1 (configuration not stated) | -8%

Later entries:
SMILES | PMP22 txn prim | HTT promoter inh
Cc1ccc(NC(=O)c2cc(CN3CCOCC3)on2)cc1Cl | -2% | 27%
CCc1nn2c(=O)cc(COC(=O)c3ccccc3NC(=O)COc3ccccc3C)nc2s1 | -29% | -4%
CCN(c1ccccc1)c1nnc(NC(=O)Nc2cccc(Br)c2)s1 | 7% | -8%
Cc1noc(/C=C/c2cccs2)c1S(=O)(=O)N1CCC(C(=O)NCc2ccc(Cl)cc2)CC1 | ? | ?
Cn1c(=O)c2c([nH]c(=O)n2Cc2ccc(Cl)cc2Cl)n(C)c1=O | -1% | -2%
COc1ccc(CNC(=O)c2nc(SCc3ccc(C)cc3)ncc2Cl)cc1 | ? | -27%
CCCCN(Cc1ccccc1)S(=O)(=O)c1ccc2c(c1)CC(C)N2C(=O)CC (configuration not stated) | ? | ?
COC(=O)c1ccccc1NC(=O)Cn1c(=O)cc(C)c2c(C)nn(-c3cccc(Cl)c3C)c21 | -20% | 3%
COC(=O)c1c(NC(=O)c2cc(=O)c3ccc(C)c(C)c3o2)sc2c1CCCC2 | -12% | 10%
Cc1c(C(=O)NCc2ccc(F)cc2)sc2nc(-c3ccccc3)cn12 | -6% | -19%
Cc1ccc(S(=O)(=O)c2nc(-c3cccs3)oc2SCc2ccc(F)cc2)cc1 | -34% | ?
CCC1CN(C(=O)N2CCC(C(=O)NCc3ccc(C)o3)CC2)c2cc(C)ccc2O1 (configuration not stated) | ? | -14%
COc1ccc(C2NC(=O)N(C)C3=C2C(=O)N(c2ccccc2)C3)cc1 (configuration not stated) | 3% | -18%
Cc1cccc(C)c1NC(=O)CSc1nc(-c2cccs2)cc(C(F)(F)F)n1 | -23% | -23%
O=C(CCS(=O)(=O)c1ccc(Br)cc1)Nc1ccc(F)cc1F | -25% | -5%
Cc1c(Cl)cccc1NC(=O)Nc1c[nH]c(=O)[nH]c1=O | 6% | 7%
CCOc1ccccc1NC(=O)N1CCc2c(sc(C)c2CC)C1c1ccccc1 (configuration not stated) | ? | -30%
COc1ccc(CNC(=O)c2ccc(N3CCCC3)c(NC(=O)NCc3ccc(F)cc3)c2)cc1 | 10% | -28%
CCc1nonc1NC(=O)c1oc2ccc(C)cc2c1C | -5% | 60%[activator]
CCOc1ccccc1C(=O)Nc1cc(-c2ccc(C)cc2)no1 | -28% | 11%
COc1ccccc1NC(=O)c1ccc(-c2nc(COc3ccc(C)cc3)c(C)o2)cc1 | ? | ?
CCCCN(CC)CCCNC(=O)CN1C(=O)CSc2ccc(S(=O)(=O)N3CCOCC3)cc21 | -15% | -10%
O=C(Nc1ccc2nc(SCC(=O)N3CCCc4ccccc43)sc2c1)c1ccccc1F | -66% | ?

Quoted from the listing.
Value for `CCOc1ccccc1C(=O)Nc1cc(-c2ccc(C)cc2)no1` in HTT promoter inh: 11%
Value for `Cc1c(C(=O)NCc2ccc(F)cc2)sc2nc(-c3ccccc3)cn12` in PMP22 txn prim: -6%
Value for `CCC1CN(C(=O)N2CCC(C(=O)NCc3ccc(C)o3)CC2)c2cc(C)ccc2O1` (configuration not stated) in HTT promoter inh: -14%
Value for `COc1ccc(C2NC(=O)N(C)C3=C2C(=O)N(c2ccccc2)C3)cc1` (configuration not stated) in PMP22 txn prim: 3%
Value for `COC(=O)c1c(NC(=O)c2cc(=O)c3ccc(C)c(C)c3o2)sc2c1CCCC2` in PMP22 txn prim: -12%
Value for `COc1ccc(CNC(=O)c2nc(SCc3ccc(C)cc3)ncc2Cl)cc1` in HTT promoter inh: -27%
